TRPML1 ag = activates the human TRPML1 channel; Q9GZU1; TRPML1-expressing cells, Ca2+ dye fluorescence, FDSS; host cell line not named in the record; reference of the full effect not given here; activation, % (test concentration not listed); 410,000 tested, 0.12% active; in the data active = activation above about 50%; inconclusive = about 30% to 50%; inactive = below about 30%; also: 0% is about no effect; the text of the record puts the active cut at 80%
Target sequence (Q9GZU1 whole entry, looked up): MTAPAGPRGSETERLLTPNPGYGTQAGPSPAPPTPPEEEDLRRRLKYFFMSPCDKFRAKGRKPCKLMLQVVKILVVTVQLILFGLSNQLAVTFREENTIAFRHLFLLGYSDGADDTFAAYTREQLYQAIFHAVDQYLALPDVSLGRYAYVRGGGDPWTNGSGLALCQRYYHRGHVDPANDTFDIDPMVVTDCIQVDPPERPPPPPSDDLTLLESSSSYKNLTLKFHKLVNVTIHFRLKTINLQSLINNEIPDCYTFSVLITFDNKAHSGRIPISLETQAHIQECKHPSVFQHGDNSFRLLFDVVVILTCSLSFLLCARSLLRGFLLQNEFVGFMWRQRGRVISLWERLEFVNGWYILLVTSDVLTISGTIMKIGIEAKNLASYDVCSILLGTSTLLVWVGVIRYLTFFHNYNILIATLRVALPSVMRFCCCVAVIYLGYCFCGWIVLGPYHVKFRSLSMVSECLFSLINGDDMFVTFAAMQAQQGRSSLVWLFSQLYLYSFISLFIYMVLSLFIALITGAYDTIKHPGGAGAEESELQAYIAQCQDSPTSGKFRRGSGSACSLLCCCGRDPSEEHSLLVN
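Cells: TRPML1-DL, 1X Tet inducer, ~16 h at 37 degrees C/5% CO2. Dye: ABD Ca8 no-wash + quencher, 45-90 min RT. Read: 10 s baseline, compound add, 110 s agonist phase; 54-4 EC80 (4uM final), 110 s antagonist phase.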
D2 ag = activates the human D2 dopamine receptor | P14416 | DiscoveRx PathHunter D2 beta-arrestin, luminescence, 90 min; 100% = 57 uM dopamine signal | activation, % (concentration not given with the values) | 360,000 tested, 0.084% active | AID 624465; in the data active = activation above about 40%; inconclusive = about 15% to 40%; inactive = below about 15%; also: compound concentration not given in the record; the text of the record calls up to 30% inactive
Target sequence (P14416 whole entry, looked up): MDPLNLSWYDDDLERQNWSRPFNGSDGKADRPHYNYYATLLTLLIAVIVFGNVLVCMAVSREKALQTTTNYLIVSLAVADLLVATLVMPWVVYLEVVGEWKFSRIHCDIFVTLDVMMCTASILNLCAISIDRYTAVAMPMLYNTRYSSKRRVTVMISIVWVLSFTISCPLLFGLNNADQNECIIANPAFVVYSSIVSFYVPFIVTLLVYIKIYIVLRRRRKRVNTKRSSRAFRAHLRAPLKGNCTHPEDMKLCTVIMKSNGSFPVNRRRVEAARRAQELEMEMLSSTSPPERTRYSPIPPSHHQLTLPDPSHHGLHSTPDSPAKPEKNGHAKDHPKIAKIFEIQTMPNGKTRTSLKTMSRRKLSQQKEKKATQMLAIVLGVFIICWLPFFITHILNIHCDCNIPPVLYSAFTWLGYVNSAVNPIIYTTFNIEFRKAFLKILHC
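DiscoveRx PathHunter D2 beta-arrestin cells (2,100/well) attached overnight, then compound-stimulated 90 min at 37 C in HBSS/10 mM HEPES/0.1% Tween-20 buffer; beta-galactosidase complementation read by luminescence after 1 h at ambient temperature. Dopamine 57 uM final (EC100) as control.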
PINK1 expr mod = PINK1 expression modulation; 410,000 tested, 0.2% active; AID 624263; PINK1 immunofluorescence, high-content cytometry, 24 h; Potency, µM (highest dose often 76.6 µM), inactives show at the highest dose activation (PINK1 increase), most hits filed as activators; active = well fitted activation curve with a large enough effect; inconclusive = small, poorly fitted or top-dose-only effect; inactive = flat fitted curve, though single readings scatter; cell line not stated here;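 also: potency is read from the fitted curve at half-maximal effect; % of control where 0% means no effect; nearly all actives have a fitted effect of over 65% in size; a mitochondrial uncoupler was the plate control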
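PINK1 protein, normally rapidly degraded, was detected by immunofluorescence after 24 hour compound treatment of a stable cell line. Titration data (5 concentrations) came from laser-scanning cytometry, with CCCP-treated wells as controls.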
CtBP-E1A inh = CtBP/E1A binding inhibition; AlphaScreen GST-E1A/His-CtBP binding, 1536-well; hits give low values; control for the full effect not named in the record; activity change, % (test concentration not listed); 340,000 tested, 0.49% active; AID 651724; in the data active means activity change below about -65%; inconclusive means about -30% to -65%; inactive means above about -30%; also: % is scaled to controls: 0 for no effect and ±100 for the full control effect; compound concentration not given in the record
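GST-E1A and His-tagged CtBP (125 nM each as 5X stock) were preincubated with pin-transferred compound for 2 h at 37 °C in the dark, then glutathione donor and nickel acceptor beads were added for 1 h before AlphaScreen reading.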
Six1-Eya2 inh = Six1/Eya2 interaction inhibition; AlphaScreen GST-Six1/His-Eya2 binding, biochemical; hits give low values; control for the full effect not named in the record; 360,000 tested, 0.56% active; AID 651725; activity change, % (test concentration not listed); Q15475+O00167; in the data active = activity change below about -65%; inconclusive = about -30% to -65%; inactive = above about -30%; also: % is scaled to controls: 0 for no effect and ±100 for the full control effect; compound concentration not given in the record
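Six1/Eya2 binding was read as AlphaScreen signal after compounds were pinned into GST-Six1 plus His-tagged Eya2 (5X stock 250/500 nM) in pH 8.0 Tris/NaCl/TCEP buffer, beads added, then incubated 1 h, 37 C, dark.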
D2 potentiator = human D2 receptor positive allosteric modulation. P14416. DiscoveRx D2 beta-arrestin cells, luminescence, 90 min; 100% = 57 uM dopamine signal. potentiation, % (no concentration beside the values). 360,000 tested, 0.23% active; active = potentiation of 50% or more; inconclusive = 30% to 50%; inactive = 30% or less;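 also: compound concentration not given in the record; tested on top of an EC20 dose of dopamine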
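PathHunter D2 cells, attached overnight at 37 deg C, received compound in DMSO plus dopamine at EC20 (50 nM final) for 90 min at 37 deg C. Beta-arrestin recruitment was read as luminescence after 1 h with detection reagent at ambient temperature.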
An asterisk follows results filed as active; ? = inconclusive; . = no result given; & = joins results of further samples; [ ] = remark or other dose. No enrichment for hits (roughly 1.3% active in at least one column).

SMILES	TRPML1 ag	D2 ag	PINK1 expr mod	CtBP-E1A inh	Six1-Eya2 inh	D2 potentiator
COc1ccc(NCc2nnc(SCC(=O)Nc3ccccc3)n2C)cc1	-0.5	-1.5	-1.5%	5.1	1.1	-1.3
Cn1ccc2c(-c3ccc(CO)cc3)cc3c(c21)C1CCC3C1 (configuration not stated)	0.3	-7.8	4.5%	-14.1	-24.3	-8.4
Oc1ccc(/C(Cc2ccccn2)=N\Nc2ccccc2)c(O)c1	1.7	-4.8	0.1%	-13.9	-13.0	-2.1
CSCCC(NC(=O)/C(=C/c1ccc(F)cc1)NC(C)=O)C(=O)O (configuration not stated)	0.0	-1.7	0.1%	0.0	1.8	-7.6
CSC(=NC#N)N1CCN(c2ccc(Cl)cc2)CC1	1.1	0.8	5.0%	-1.4	3.2	4.3
CC(C)(O)c1[nH]c2ccc(C(F)(F)F)cc2c1C(C)(C)O	-0.3	1.7	9.5%	-8.2	6.2	-18.1
O=C(N1CCCCC1)C12CC3CC(CC(C3)C1)C2	-1.4	-3.3	-0.4%	1.8	-1.7	-14.2
O=C(NNC(=O)c1ccc(NC(=O)c2ccccc2)cc1)c1ccccc1	-0.6	-4.4	5.1%	1.8	-6.8	1.3
O=C(O)c1ccccc1C(=O)NC1CCCc2ccccc21 (configuration not stated)	0.5	-0.4	0.6%	1.5	6.2	-4.2
COc1ccc(S(N)(=O)=O)cc1C(=O)NCCCN1CCN(c2cccc(Cl)c2)CC1	1.0	10.3	-1.2%	-1.7	-5.8	-12.3
COc1cc(C(C(=O)NC2CCCCC2)N(CCN2CCOCC2)C(=O)C2COc3ccccc3O2)cc(OC)c1OC (configuration not stated)	-1.3	-11.4	15.6%	2.9	5.4	-8.1
O=C(Nc1ccc(NC(=O)c2ccc(Cl)cc2Cl)cc1)c1cccs1	0.9	-4.8	13.4%	0.6	-8.6	-4.5
Cc1c(Cc2ccc3c(c2)OCO3)sc(NC(=O)C(C)(C)C)c1C#N	0.0	-1.7	6.5%	-1.3	3.1	0.9
Cc1ccc(-c2ccc(=O)n(CC(=O)NCCCN3CCCCC3C)n2)cc1 (configuration not stated)	0.5	-2.4	7.0%[38.3 µM]	-26.8	-9.4	-12.0
CCC1Oc2ccc(C)cc2N(CC(=O)NCCN2CCCCCC2)C1=O (configuration not stated)	0.5	-2.1	.	5.5	0.3	-21.2
CCOC(=O)C(NC(=O)c1ccccc1)(OCc1ccc(F)cc1)C(F)(F)F (configuration not stated)	-0.9	-5.5	0.9%	-2.7	1.1	-2.7
CCOC(=O)c1[nH]c(C)c(C(=O)N2CCN(c3ccc(OC)cc3)CC2)c1C	-0.2	-2.6	-0.1%	-2.3	0.8	-3.7
O=C(CCc1ccccc1)N1N=C(c2ccncc2)CC1(O)C(F)(F)F (configuration not stated)	1.1	-2.3	-0.2%	3.8	15.3	-4.4
COc1ccc(Cn2nnnc2CN(CCCN2CCOCC2)Cc2cc3cc(OC)ccc3[nH]c2=O)cc1	-0.2	-1.3	-1.0%	4.2	5.7	-12.9
COc1ccc(CCC(=O)Nc2c(-c3ccc(N(C)C)cc3)[nH][nH]c2=O)cc1	-0.6	7.5	-1.4%	?	1.7	-16.9
CCN1C(=S)N[C@@H](c2cccc(F)c2)C(C(=O)OC)=C1C	1.1	-2.2	0.9%	7.5	-2.8	0.6
O=C(O)c1ccc(Nc2nc3ccccc3nc2NS(=O)(=O)c2ccc(F)cc2)cc1	-0.6	0.9	11.9%	.	-1.7	-2.9
O=C(/C(=C/c1ccc(Cl)cc1)c1nc2ccccc2[nH]1)c1cccs1	1.4	0.2	-4.0%	0.5	0.8	-9.2
COc1ccc(-n2nc3c(c2NC(=O)CCl)CSC3)cc1	0.0	-3.3	-0.2%	-14.3	17.9	-3.8
CCn1c(CCc2nc3ccccc3[nH]2)n[nH]c1=S	-0.1	2.6	2.0%	0.6	8.4	-9.6
COC(=O)c1ccccc1NC(=O)c1ccc(COc2cc(C)cc(C)c2)o1	-0.5&0.3	-2.2	0.1%&3.9%	19.0	10.9	-22.8
O=C(CN1CCN(CC(=O)Nc2ccccn2)CC1)Nc1ccccn1	-0.2	-2.3	1.4%	1.4	9.1	4.0
O=C1c2ccccc2C(=O)N1CCCc1nc2ccccc2c(=O)n1-c1cccnc1	-0.6	-4.4	0.1%	14.2	25.3	-25.3
Cc1cc(NC(=O)c2cc(-c3ccccn3)nc3ccc(Br)cc23)no1	0.9	-1.5	7.9%	-2.7	-4.6	-8.6
COc1cc2c(cc1OC)CN(C(=O)COc1ccccc1C#N)CC2	0.7	1.9	1.9%	-13.6	-15.9	-1.2
COCc1ccc(C(=O)N2CCCC(N(C)Cc3ccccc3)C2)s1 (configuration not stated)	0.2	-2.8	-0.9%	-15.0	3.2	-22.6
CCO/C=C/C(O)(CNC(=O)c1ccc(C(C)(C)C)cc1)C(F)(F)F (configuration not stated)	1.3	-2.5	5.7%	-2.6	-2.4	-2.1
CSc1nsc2nc(=O)c(/C=C3\C(C)=Nc4ccc(C)cc43)c(N)n12	-0.2	-4.9	1.3%	1.0	-18.3	-5.4
Nc1ncnc2c1ncn2[C@@H]1O[C@H](CNC(=O)[C@@H]2CCN2)[C@@H](O)[C@H]1O	-0.5	2.1	-0.5%	-2.1	3.6	2.5
Cc1ccc(OC(C)C(=O)Nc2ccc(S(=O)(=O)Nc3nccs3)cc2)cc1 (configuration not stated)	4.8	-1.0	-1.4%	-2.6	-21.7	-2.9
Cc1cnc(NC(=O)CCNC(=O)c2ccc([N+](=O)[O-])cc2)s1	0.0	-1.4	2.2%	.	-0.2	-3.2
CS(=O)(=O)N(CC(=O)NCc1ccncc1)C1CCCCC1	0.0	-0.4	3.4%	0.8	-1.0	-0.9
Cc1cccnc1C(NC(=O)C1CCN(CCCOc2ccc(F)cc2)CC1)c1ccccc1 (configuration not stated)	-0.2	-5.1	-0.2%	-0.5	-3.6	-20.7
CCCS(=O)(=O)NC(=O)C1(C)CCN(C(=O)c2cccc(C)c2C)C1 (configuration not stated)	-0.4	-3.0	-0.3%	6.4	5.3	-5.1
CCOc1ccc(NS(=O)(=O)c2ccc(NC(=O)C3CC3)cc2)cc1	0.2	3.3	0.0%	3.4	2.5	-10.0
COCCCNc1nnc(Cc2ccc(Cl)cc2)c(=O)[nH]1	-0.1	0.5	3.9%	.	-5.5	-12.8
COC(=O)[C@]12CCCCC=C1N(CCC1=CCCCC1)C(=O)[C@H](CC(=O)N1CCCC1)C2	-0.3	.	-0.5%	3.5	-5.9	.
C=CCn1c(=O)c2ccc(C(=O)NCc3ccccc3)cc2n(Cc2cccc(Cl)c2)c1=O	1.0	0.6	5.0%	0.0	10.2	-5.6
COC(=O)c1ccc(N2CCN(C)CC2)c(NC(=O)c2ccc(-c3ccc(Cl)cc3)o2)c1	0.0	-2.3	11.8%	12.8	-1.3	10.0
O=C(Nc1nnc(C2CC2)s1)C1Cc2ccccc2CN1C(=O)c1ccco1 (configuration not stated)	6.8	-0.7	-0.6%	-8.6	-17.9	-0.9
CCC(CC)C(=O)c1c[nH]c(C(=O)NCc2cccnc2)c1	-0.5	-2.8	-0.4%	0.2	-2.3	-30.1
COC(=O)c1[nH]c(C)c(/C(O)=C2\C(=O)C(=O)N(CCN3CCOCC3)C2c2cccs2)c1C (configuration not stated)	-0.7	0.2	-1.9%	1.0	2.6	-7.3
O=C(Nc1ccc(N2CCN(Cc3ccccc3)CC2)cc1)c1ccccc1[N+](=O)[O-]	-0.1	0.6	3.4%	.	36.4	-11.1

Record cards, as listed above. Order of values: TRPML1 ag, D2 ag, PINK1 expr mod, CtBP-E1A inh, Six1-Eya2 inh, D2 potentiator
`COc1ccc(Cn2nnnc2CN(CCCN2CCOCC2)Cc2cc3cc(OC)ccc3[nH]c2=O)cc1` as listed: -0.2, -1.3, -1.0%, 4.2, 5.7, -12.9
`COC(=O)c1ccc(N2CCN(C)CC2)c(NC(=O)c2ccc(-c3ccc(Cl)cc3)o2)c1` as listed: 0.0, -2.3, 11.8%, 12.8, -1.3, 10.0

Remaining list, next part
SMILES	TRPML1 ag	D2 ag	PINK1 expr mod	CtBP-E1A inh	Six1-Eya2 inh	D2 potentiator
COc1cc(/C=N/N=C(/C(=O)c2ccccc2)c2ccccc2)cc(OC)c1O	0.3	-7.6	1.4%	3.8	-17.3	2.0
COc1ccc(-c2cc(C(=O)N(C)Cc3ccccc3)c3ccccc3n2)cc1	0.4	4.8	0.4%	8.7	-7.0	-2.5
CC1N(C(=O)N(C)C)CCN1S(=O)(=O)c1ccccc1 (configuration not stated)	0.0	-1.9	-1.4%	3.6	1.3	-2.4
COc1cccc(CC2(CO)CCCN(S(=O)(=O)N(C)C)C2)c1 (configuration not stated)	0.3	-3.3	0.4%	16.8	-2.8	-8.4
O=C(C1CCCN(S(=O)(=O)c2ccccc2)C1)N1CCN(c2ccccc2)CC1 (configuration not stated)	0.3	-0.5	1.2%	-5.4	6.7	-19.5
NC(=O)c1cccc(-c2coc3c(C(=O)NC4CCCCC4)cccc23)c1	0.3	3.4	1.3%	?	-27.5	-14.7
COc1ccc(NC(=O)NNC(=O)c2cc(C3CC3)nc3ccccc23)c(OC)c1	-0.2	-3.4	0.2%	-3.7	1.3	-23.5
Cc1ccc(NC(=O)C(CC(C)C)NC(=O)C2CCC(C)CC2)nc1 (configuration not stated)	0.4	-0.6	-1.5%	-0.8	-1.2	-26.5
CN(C)S(=O)(=O)c1ccc(C(=O)NCCOc2ccccc2)cc1	-0.6	-3.2	-0.6%	5.1	0.2	-15.1
CCN(CC)c1ccc(C(=O)NNC(=O)CN2C(=O)NC3(CCCCC3)C2=O)cc1	-0.1	-0.4	-0.5%	7.9	-0.1	-16.0
CCN(CC)CCn1c(NCc2nc3ccccc3n2Cc2ccccc2)nc2ccccc21	0.9	-3.2	-2.9%[38.3 µM]	-15.7	-12.8	-27.8
COc1ccccc1CCC(=O)OCC(=O)Nc1cccc(S(=O)(=O)N2CCCCC2)c1	1.2	-0.7	2.4%	0.0	-6.1	18.8
Cc1nn(CCOc2ccccc2)c(=O)n1-c1ccc(Cl)cc1	-0.9	-1.4	-0.2%	-1.9	14.5	3.8
O=C(CSc1ccc(Cl)cc1)NC1CCCC1	-0.2	-6.1	0.9%	7.5	5.6	-16.9
C/C(=N\NC(=O)c1ccc(O)cc1)c1ccc(NC(=O)Cc2ccccc2)cc1	-0.4	-1.9	9.8%	-8.1	-7.3	-14.6
O=C(CSc1nnnn1C1CCCCC1)Nc1ccccc1F	0.6	-0.7	0.4%	-1.2	9.3	-9.6
CCn1c(=O)c([N+](=O)[O-])c(NCc2ccco2)c2ccccc21	1.7	-10.0	0.3%	.	-3.9	-12.2
COc1ccccc1NC(=O)CCn1c(=S)oc2ccccc21	0.4	1.0	-1.7%	1.2	6.7	-9.3
COc1cc(OC)nc(Oc2ccccc2C=O)n1	-0.6	-1.6	1.5%	7.8	-3.5	-2.2
COc1cccc(C(=O)NCCS(=O)(=O)N2CCC3(CC2)OCCO3)c1	0.2	1.0	0.5%	1.7	0.5	-13.9
CCOC(=O)c1cnn(-c2ccc(C(C)C)cc2)c1NC(=O)C1CCC1	-1.3	-4.8	0.4%	10.6	1.7	-5.0
